Assay outcomes from PubChem BioAssay.
miR-21 reporter: qHTS Assay for Modulators of miRNAs and/orActivators of miR-21 | Potency, µM (series often up to 38.3 µM), inactives show at the top dose reporter change, positive = more light | 340,000 tested, under 10 active | AID 2288, 2010 | HeLa miR-21 FLuc reporter, luciferase, 48 h; active = well fitted rising curve with a large enough effect; inconclusive = small, poorly fitted or top-dose-only effect; inactive = no such curve, though single readings can be large or run the other way;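 note: % of control where 0% means no effect; miR-21 action dims this reporter so a rising signal means less miR-21 action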
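Using DMEM plus 10% FBS, HeLa miR-21-FLuc cells are incubated with test compounds (final up to about 40uM) for 48 hours; firefly luciferase signal is then imaged following reagent-mediated lysis.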
Rango dissoc inh: qHTS Assay for Inhibitors of RanGTP induced Rango (Ran-regulated importin-beta cargo) - Importin beta complex dissociation | Snurportin-1 (Homo sapiens) + GTP-binding nuclear protein Ran (Homo sapiens) + Importin … | Biochemical FRET Rango-importin beta, RanGTP-induced dissociation | Potency, µM (titrated, usually from 46.1 µM), for inactives: at the highest dose activity change, negative = inhibition | 340,000 compounds, 0.071% hits; active means falling FRET ratio curve, often poorly fitted, with flat reads before Ran was added; inconclusive means other falling curves, or compound fluorescence or quenching; inactive means flat or rising ratio curve;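 note: potency is the fitted concentration of half-maximal effect; % of control where 0% means no effect; nearly all actives have a fitted effect of over 45% in size; -100% = wells without RanGTP and RCC1; the record marks most hits as doubtful in a second field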
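Compounds sat 5 min at room temperature with 0.1 uM Rango biosensor plus 0.25 uM importin beta, then FRET pre-read. RanGTP-RCC1 (0.6 uM Ran, 2mM GTP, 0.2 uM RCC1) added for 45 min, and the CFP/YFP post-read measured blocked complex dissociation.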
GLA inh pH 4.5: qHTS Assay for Inhibitors of Human alpha-Galactosidase at pH 4.5; Alpha-galactosidase A (Homo sapiens), P06280; activity change, negative = inhibition, % at 105 µM; 230,000 tested, under 10 active; purified enzyme, 4-MU-alpha-Gal fluorescence, pH 4.5; inconclusive = small, poorly fitted or top-dose-only inhibition, or a rising curve; inactive = flat fitted curve, though single readings scatter; no compound was filed as active;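 note: 0% = full activity with enzyme and -100% = basal without enzyme; dose as in the result columns while the protocol names 77 µM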
Rango complex inh: qHTS Assay for Inhibitors of Rango (Ran-regulated importin-beta cargo) - Importin beta complex formation; Rango CFP/YFP FRET sensor + importin beta, 45 min; Potency, µM (doses to about 92.2 µM), without a hit: at the highest dose inhibition of complex formation; 340,000 compounds, 0.031% hits; AID 540263, 2011; active = rising FRET ratio curve, often small or poorly fitted; inconclusive = mostly compound fluorescence or quenching in the first reads; inactive = flat curves in all reads;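 note: potency is the fitted concentration of half-maximal effect; 0% = DMSO wells and 100% = buffer wells lacking importin beta; nearly all actives have a fitted effect of over 15% in size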
Target sequence (Q14974 whole entry, looked up): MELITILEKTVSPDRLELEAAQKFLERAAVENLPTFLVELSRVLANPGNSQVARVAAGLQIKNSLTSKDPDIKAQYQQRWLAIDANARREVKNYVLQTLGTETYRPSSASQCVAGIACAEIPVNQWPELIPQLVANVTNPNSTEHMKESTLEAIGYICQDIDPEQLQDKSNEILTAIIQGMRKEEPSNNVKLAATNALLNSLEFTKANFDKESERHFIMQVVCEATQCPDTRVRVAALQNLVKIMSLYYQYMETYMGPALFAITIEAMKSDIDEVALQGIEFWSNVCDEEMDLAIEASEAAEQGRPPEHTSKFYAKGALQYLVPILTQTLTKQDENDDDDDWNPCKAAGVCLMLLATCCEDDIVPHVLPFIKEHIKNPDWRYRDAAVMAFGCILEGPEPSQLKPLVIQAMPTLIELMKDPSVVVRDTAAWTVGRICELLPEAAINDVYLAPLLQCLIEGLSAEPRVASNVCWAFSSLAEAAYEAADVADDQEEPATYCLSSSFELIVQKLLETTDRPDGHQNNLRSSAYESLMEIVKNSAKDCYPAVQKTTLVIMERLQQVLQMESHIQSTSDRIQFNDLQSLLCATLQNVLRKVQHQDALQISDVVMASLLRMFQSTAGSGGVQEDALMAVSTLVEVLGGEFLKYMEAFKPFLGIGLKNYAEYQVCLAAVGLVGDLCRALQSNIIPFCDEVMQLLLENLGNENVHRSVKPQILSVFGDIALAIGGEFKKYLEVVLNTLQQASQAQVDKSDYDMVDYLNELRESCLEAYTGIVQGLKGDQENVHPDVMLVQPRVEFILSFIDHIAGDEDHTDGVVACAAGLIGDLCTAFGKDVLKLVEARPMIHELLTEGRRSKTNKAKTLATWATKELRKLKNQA
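FRET biosensor Rango (snurportin 1 IBB between N-terminal EYFP and C-terminal Cerulean), 50 nM in PBS/1 mM DTT/0.02% Tween-20/0.1% BSA, preincubated 5 min RT with compound; 0.125 microM importin beta added, 45 min RT, CFP/YFP FRET ratio read.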
Starred values were filed as active, the others as inactive; ? = inconclusive; . = no result given; & = joins results of further samples. Some of the compounds tested (hit frequency here may not be typical).

nr	miR-21 reporter	Rango dissoc inh	GLA inh pH 4.5	Rango complex inh	Structure
1	0%	-11%	.	-1.8%	CC(=O)Nc1ccc(S(=O)(=O)NCCC(=O)OCC(=O)N2CCN(C(=O)c3ccco3)CC2)cc1
2	-24%	-7%	4	-0.8%	O=C(Nc1ccccc1O)c1ccc(NS(=O)(=O)c2cccc3cccnc23)cc1
3	3%	3%	6	-0.9%	COc1ccccc1C(=O)NC(CCSC)C(=O)NC1CCCCCC1 (stereo not given)
4	-3%	-5%	-2	-5.3%	O=C(O)CCc1nn2c3ccccc3n(CC(=O)c3ccccc3)c2nc1=O
5	0%	-11%	-5	-3.1%	CN(C)S(=O)(=O)Oc1ccsc1C(=O)Nc1cccc(Cl)c1
6	-8%	-8%	6	-1.8%	COc1ccnc(Nc2ccc(C)c(C)c2)c1C#N
7	-17%	-9%	1	?	COc1cccc(C2=NN(C(=O)CCCC(=O)O)C(c3cccs3)C2)c1 (stereo not given)
8	2%	9%	.	-0.7%	Cc1c(CC(=O)O)c(=O)oc2c(C)c3occ(-c4ccccc4)c3cc12
9	-15%	-15%	-7	-0.3%	O=C(Cn1cnc2c(oc3ccccc32)c1=O)NCc1ccccc1
10	-1%	0%	?	-4.2%	COc1ccc(CCNc2oc(-c3cccc4ccccc34)nc2P(=O)(OC)OC)cc1OC
11	12%	-14%	-6	-0.1%	Cc1ccc(C(=O)N/C(=C\c2ccc(Br)cc2)c2nc(=S)[nH][nH]2)cc1
12	-1%	-9%	-2	-1.3%	O=C(NCC1CCCO1)C1CCN(S(=O)(=O)N2CCCC2)CC1 (stereo not given)

Complete entries from above. Order of values: miR-21 reporter | Rango dissoc inh | GLA inh pH 4.5 | Rango complex inh
COc1cccc(C2=NN(C(=O)CCCC(=O)O)C(c3cccs3)C2)c1 (stereo not given) in the list: -17% | -9% | 1 | ?
O=C(Nc1ccccc1O)c1ccc(NS(=O)(=O)c2cccc3cccnc23)cc1 in the list: -24% | -7% | 4 | -0.8%
Cc1ccc(C(=O)N/C(=C\c2ccc(Br)cc2)c2nc(=S)[nH][nH]2)cc1 in the list: 12% | -14% | -6 | -0.1%
COc1ccc(CCNc2oc(-c3cccc4ccccc34)nc2P(=O)(OC)OC)cc1OC in the list: -1% | 0% | ? | -4.2%

Next section.
nr	miR-21 reporter	Rango dissoc inh	GLA inh pH 4.5	Rango complex inh	Structure
13	-5%	-11%	-4	2.7%	O=C1/C(=C\c2ccc(-c3ccccc3Cl)o2)SC(=S)N1CC1CCCO1 (stereo not given)
14	10%	-3%	-9	1.6%	COc1ccc(OC)c(C(c2nnnn2C2CCCC2)N2CCN(c3ccccc3F)CC2)c1 (stereo not given)
15	-15%	26%	2	0.3%	CCn1c(NCc2ccco2)nc2c1c(=O)n(C)c(=O)n2C
16	0%	0%	-3	-5.7%	CCN(CC(=O)NCc1cccs1)S(=O)(=O)c1ccc([N+](=O)[O-])cc1
17	.	2%	.	3.2%	COc1ccc(Cl)cc1NC(=O)CN(C)C(=O)C1CCN(C(=O)Nc2ccccc2)CC1
18	20%	6%	.	3.4%	C=CCN(Cc1cc(OC)ccc1OC)C(=O)c1cc2ccc(OC)cc2[nH]1
19	.	8%	.	-0.4%	CCOC(=O)C1=CNS(=O)(=O)NC1c1ccc2ccccc2c1 (stereo not given)
20	0%	-1%	-10	0.3%	Cc1ccc(C(=O)N2CCN(C(=O)CN3CCCC3)C2)cc1
21	2%	-16%	0	-3.8%	CN1CCN(Cc2oc(CO)cc(=O)c2O)CC1
22	-3%	5%	3	-2.8%	Cc1ccc(C)c(N2CCN(CCCNC(=O)Cn3cc4c(n3)CCC(C)C4)CC2)c1 (stereo not given)
23	-8%	10%	1	2.5%	O=c1[nH]nc2c3ccccc3cnn12
24	0%	-9%	6	-0.7%	CCCCN(C)CCCNC(=O)CCn1nc(-c2ccccc2)ccc1=O

The last 3 records of the part above open the next one.
nr	miR-21 reporter	Rango dissoc inh	GLA inh pH 4.5	Rango complex inh	Structure
22	-3%	5%	3	-2.8%	Cc1ccc(C)c(N2CCN(CCCNC(=O)Cn3cc4c(n3)CCC(C)C4)CC2)c1 (stereo not given)
23	-8%	10%	1	2.5%	O=c1[nH]nc2c3ccccc3cnn12
24	0%	-9%	6	-0.7%	CCCCN(C)CCCNC(=O)CCn1nc(-c2ccccc2)ccc1=O
25	-18%	16%	-2	2.3%	CCCCC(=O)NC(NC(=O)CCCC)c1ccc(OCCC)c(OC)c1
26	-1%	-19%	4	-1.6%	O=C(COC(=O)c1cccc(S(=O)(=O)N2CCc3ccccc32)c1)Nc1ncc(Cl)cc1Cl
27	7%	19%	-5	0.0%	Clc1ccc(CN2CCC(Cc3ccccc3)CC2)cc1
28	-4%	0%	?	-0.1%	C=CCNC(=O)CC(=O)N/N=C/c1ccccc1F
29	.	7%	.	-2.6%	Cc1nc(-c2ccc(F)cc2)c(CC(=O)N(C)CC(=O)Nc2ccccc2Br)s1
30	-48%&-44%	3%	.	0.1%	Cc1ccccc1NC(=O)c1cc2ccccc2o1
31	-6%	-3%	-9	-0.6%	CCOc1ccc(CC2c3cc(OCC)c(OCC)cc3CCN2C(=O)c2cc(OC)c(OC)c(OC)c2)cc1OCC (stereo not given)
32	18%	-11%	.	0.5%	CNC[C@H](CC1CCCCC1)NC[C@H](CO)NCC1(c2ccccc2)CC1
33	-1%	-19%	.	1.9%	CCCn1c(C(C)Nc2nc(-c3cc(Cl)c(N)c(Cl)c3)cs2)nc2cc(Cl)c(N3CCCCC3)cc21 (stereo not given)
34	-2%	4%	.	?	CC(C)(C)NC(=O)C1c2ccccc2Oc2ccccc21
35	17%	1%	4	-2.2%	O=C(Nc1ccccc1Cl)N1CCCN(c2nc(-c3ccccc3)ns2)CC1
36	-3%	1%	-5	-3.3%	CCCCc1ccc(NC(=S)NCc2cccc(OC)c2)cc1
37	-3%	2%	8	-2.3%	COC(=O)c1cc(NS(=O)(=O)c2ccc(NC(C)=O)cc2)cc(C(=O)OC)c1
38	4%	-9%	.	-1.9%	CCc1ccccc1NC(=O)CSc1nc(C)c(C)o1
39	-4%	0%	.	-0.5%	CCOc1cc(S(=O)(=O)Nc2ccncc2)ccc1F
40	.	11%	.	0.7%	COc1cccc(COC(=O)C2CCN(S(=O)(=O)c3cccs3)CC2)c1OC
41	-1%	-12%	1	0.0%	O=C(CN1CCOCC1)NN=C1CCCCCCCCCCC1
42	-39%	8%	.	2.1%	Cc1ccc(C(=O)NC2CCCCC2)cc1S(=O)(=O)N1CCCC1
43	?	0%	-11	-2.6%	CCC(C)Sc1cc(C(F)(F)F)c(C(=O)Nc2ccc(Cl)cc2)cn1 (stereo not given)
44	.	-4%	.	1.2%	CC12CCC(=O)N1C(C(=O)NNC(=O)c1ccc(Br)cc1)CS2 (stereo not given)
45	-3%	0%	-6	4.0%	N/C(Cc1ccc(Cl)cc1)=N\OC(=O)Cc1ccc([N+](=O)[O-])cc1
46	17%	5%	3	0.0%	CCCN1CCC(=NNc2ccc(S(=O)(=O)N(CC)CC)cc2[N+](=O)[O-])CC1
47	4%	-27%	4	2.1%	C=CCNC(=O)CC1Nc2c3ccccc3nc(=S)n2C1=O (stereo not given)
48	-60%	15%	1	1.4%	Cc1cc(C)cc(N(CC(=O)Nc2ccc(-c3nc4ccc(C)cc4s3)cc2)S(C)(=O)=O)c1
49	-5%	0%	10	0.2%	COc1cc(OC)cc(C(=O)Nc2c(F)cccc2F)c1
50	10%	0%	-4	0.0%	CCc1c(C(=O)N2CCN(c3ccccc3F)CC2)[nH]c(C)c1C(C)=O
51	-2%	1%	3	2.3%	Cc1cc(C)n2nc(C(=O)N/N=C/c3cn(C)nc3C)nc2n1
52	.	-3%	.	-1.1%	O=C1C=C(c2cccc(Br)c2)C[C@@H](c2ccc(F)cc2)C1
53	-13%	-9%	2	0.9%	COc1ccccc1N1CCN(Cc2cccs2)CC1
54	0%	16%	-3	-2.2%	CS(=O)(=O)Nc1ccccc1NS(C)(=O)=O
55	8%	-9%	-21	-0.5%	COc1ccc(Sc2cc(C(F)(F)F)nc(-c3ccccn3)n2)cc1
56	-10%	14%	9	-2.7%	CCCCOc1ccc(C(=O)NC(=S)Nc2ccc(CN3CCOCC3)cc2)cc1
57	.	0%	.	1.1%	CC(Sc1nc2ncc(Cl)cc2[nH]1)C(=O)NC1(C#N)CCCCC1 (stereo not given)
58	0%	0%	8	0.2%	COC(=O)c1cccc(NS(C)(=O)=O)c1
59	-1%	?	.	?	Cc1c(C)c2ccc(O)c(CN3CCCC3)c2oc1=O
60	.	4%	.	-5.1%	Oc1ccc(C=NNc2ccccn2)c(O)c1
61	.	-12%	.	-3.0%	O=C(CSc1nnnn1-c1ccccc1)NCC1(N2CCCCC2)CCCCC1
62	-24%	?	-2	?	COc1ccc(/C(O)=C2/C(=O)C(=O)N(CCN3CCOCC3)C2c2ccccn2)cc1OC (stereo not given)
63	7%	4%	-4	3.6%	COc1ccc([C@@H]2[C@H]3C(=O)N(c4cccc(C(F)(F)F)c4)C(=O)[C@H]3ON2C)cc1
64	-2%	8%	-10	-0.8%	Cc1cc(OC(=O)C(C)(C)C)c([N+](=O)[O-])c(=O)[nH]1
65	-13%	3%	21	-2.7%	CCN(CC(=O)Nc1ccc2c(c1)OCO2)Cc1nc2ccccc2c(=O)[nH]1
66	-11%	-16%	.	-1.0%	COc1ccccc1N1CCN(C(=O)CCc2ccccc2)CC1
67	-6%	0%	-9	0.6%	CCN(CC)CCNC(=O)C12CC3CC(CC(C3)C1)C2
68	-39%	-2%	-5	-5.2%	CC(C)(O)C#Cc1ccc(C(=O)NCc2ccccc2F)cc1
69	-10%	-2%	7	0.6%	COc1ccccc1CNC(=O)C1CC(c2c(Cl)cccc2Cl)=NO1 (stereo not given)
70	2%	-21%	0&-2	?	CC1(OC(=O)C2CCCC2)C(=O)C=C2C=C(c3ccsc3)OC=C2C1=O (stereo not given)
71	-2%	14%	.	1.7%	CC(C)c1ccc(NC2CCCN(C(=O)CCN3CCOCC3)C2)cc1 (stereo not given)
72	.	23%	.	3.1%	Cn1c(=S)c2[nH]c(SCCC(C)(C)C)nc2n(C)c1=O
73	3%	-12%	.	-0.4%	Cc1ccccc1-n1c(SCC(=O)N2CCOCC2)nc(O)c(Cc2ccccc2)c1=O
74	-12%	-6%	10	4.7%	O=C(O)c1cccc(C(=O)Cc2ccccc2)c1
75	.	17%	.	-0.5%	CC(C)CN1C(=O)C(=O)N(CC(=O)Nc2cccc(Cl)c2Cl)C1=O
76	-10%	8%	.	-3.9%	Cc1cccc(OCCC(=O)Nc2ccc(Cl)cc2F)c1
77	.	3%	.	?	COc1ccc(-c2c(-c3ccc(OC)c(F)c3)c3ccccc3n2C)cc1
78	0%	4%	4	-3.7%	Cc1ccc(NC(=O)N2CCC(C(=O)NCc3ccc(F)cc3)CC2)cc1
79	.	9%	.	-3.2%	COc1ccc(NC(=O)COc2ccccc2Cc2ccccc2)cn1
80	4%	10%	0	-2.4%	COCC(=O)Nc1cccc2ccccc12
81	-3%	-4%	.	3.2%	COc1ccccc1-c1nnc(NC(=O)Cc2ccccc2)o1
82	6%	5%	.	-1.9%	Cc1cc(=O)oc2cc(NC(=O)Cc3ccccc3[N+](=O)[O-])ccc12
83	0%	3%	-5	0.1%	COc1ccccc1NC(=O)c1ccc(NC(=O)COC(=O)C(C)C)cc1
84	-6%	9%	.	0.2%	COC(=O)Nc1cc(C(=O)c2ccc(Cl)cc2Cl)c[nH]1
85	-11%	11%	.	-0.8%	Fc1ccccc1CN1CCN(c2ncccn2)CC1
86	-12%	-9%	-8	-4.8%	CC(=O)c1csc(COc2cc(Cl)cc(Cl)c2)n1
